StopGo RLuc: FMDV 2A StopGo reporter, Renilla signal | HEK cells with a luciferase reporter of 2A StopGo recoding | Potency, µM (top dose mostly 57.5 µM), for the others: at the top dose signal change, negative = less light | 120,000 tested, 0.32% active; active means well fitted falling curve with a large enough effect; inconclusive means small, poorly fitted or top-dose-only effect; inactive means no such curve, though single readings can be large or run the other way; note: nearly all actives have a fitted effect of over 55% in size; overnight with compound
StopGo FLuc: lowers the firefly signal of an FMDV 2A StopGo reporter. HEK cells with a luciferase reporter of 2A StopGo recoding. Potency, µM (highest dose often 57.5 µM), inactives show at the highest dose signal change, negative = less light. 120,000 tested, 0.23% active; active = well fitted falling curve with a large enough effect; inconclusive = small, poorly fitted or top-dose-only effect; inactive = no such curve, though single readings can be large or run the other way; note: nearly all actives have a fitted effect of over 60% in size; overnight with compound
* hit, by the source's call; [ ] = dose if it differs, or a comment. % is set by controls: 0 for no effect and ±100 for the full control effect; potency is the fitted concentration of half-maximal effect.

How did Cn1c(=O)[nH]c(=O)c2c1nc(NCCCO)n2CC(O)COc1ccc(Cl)cc1 (stereo not given) do in these assays?
StopGo RLuc: -7%; StopGo FLuc: -2%

How did CC1CN(C(=O)CCC(=O)Nc2cc(F)ccc2F)c2ccccc2S1 (stereo not given) do in these assays?
StopGo RLuc: 45%[activator]; StopGo FLuc: 5%

How did Cc1ccc(C(=O)C(C)Oc2ccc(C#N)cc2)cc1C (stereo not given) do in these assays?
StopGo RLuc: -4%; StopGo FLuc: -11%

Results for O=C(Cc1cccc(F)c1)NCC1CCN(Cc2cccs2)CC1 ?
StopGo RLuc: 0%; StopGo FLuc: -12%

Results for Cc1ccc(-n2ncc(C(=O)NCCCN3CCN(c4cccc(Cl)c4)CC3)c2-n2cccc2)cc1 ?
StopGo RLuc: -5%; StopGo FLuc: -14%

How did COc1cccc(-c2cc(C(F)(F)F)n3ncc(C(=O)OC(C)C)c3n2)c1 do in these assays?
StopGo RLuc: -10%; StopGo FLuc: 0%

What do the screens show for `O=C(OCC(F)(F)F)c1cc([N+](=O)[O-])cc([N+](=O)[O-])c1`?
StopGo RLuc: 2%; StopGo FLuc: 3%

Results for Cc1ccc(NC(=O)c2nc(S(C)(=O)=O)ncc2N(Cc2ccco2)Cc2cccs2)c(C)c1 ?
StopGo RLuc: -6%; StopGo FLuc: -17%

Results for CC(C)C(=O)NCCNC(=O)c1cc(-c2ccncc2)nc2ccccc12 ?
StopGo RLuc: -1%; StopGo FLuc: 0%

Results for CC1CCCN(S(=O)(=O)c2ccc3[nH]c(=O)cc(C(=O)NCCc4ccc(Cl)cc4)c3c2)C1 (stereo not given) ?
StopGo RLuc: 1%; StopGo FLuc: 1%

How did COc1ccc(-c2noc(N(c3cccc(Cl)c3)c3nc(-c4ccc(OC)c(OC)c4)no3)n2)cc1OC do in these assays?
StopGo RLuc: -12%; StopGo FLuc: -20%

What do the screens show for `O=C(NC1CCN(CCCc2nc3ccccc3o2)CC1)C1CCCCC1`?
StopGo RLuc: -14%; StopGo FLuc: -1%

How did CNC(=O)NC(=O)C(C)Sc1ccc(F)cc1 (stereo not given) do in these assays?
StopGo RLuc: 8%; StopGo FLuc: 21%

Results for COc1ccc(C(C)=O)cc1COC(=O)C1(c2ccc(Cl)cc2)CCCC1 ?
StopGo RLuc: 13%; StopGo FLuc: 3%

Results for CC(=O)Nc1ccc(S(=O)(=O)NCc2ccc(C(=O)NCc3ccc(Cl)cc3)cc2)cc1 ?
StopGo RLuc: 14%; StopGo FLuc: -3%

The list goes on; it opens with the four that closed the last part.
What do the screens show for `O=C(NC1CCN(CCCc2nc3ccccc3o2)CC1)C1CCCCC1`?
StopGo RLuc: -14%; StopGo FLuc: -1%

How did CNC(=O)NC(=O)C(C)Sc1ccc(F)cc1 (stereo not given) do in these assays?
StopGo RLuc: 8%; StopGo FLuc: 21%

Results for COc1ccc(C(C)=O)cc1COC(=O)C1(c2ccc(Cl)cc2)CCCC1 ?
StopGo RLuc: 13%; StopGo FLuc: 3%

Results for CC(=O)Nc1ccc(S(=O)(=O)NCc2ccc(C(=O)NCc3ccc(Cl)cc3)cc2)cc1 ?
StopGo RLuc: 14%; StopGo FLuc: -3%

Results for CCC(Oc1ccccc1)C(=O)Nc1ccccc1OCc1cc(=O)n2ccccc2n1 (stereo not given) ?
StopGo RLuc: -6%; StopGo FLuc: -16%

How did CCCn1c(SCc2nc(-c3ccc(OC)c(OC)c3)no2)nnc1-c1ccccc1 do in these assays?
StopGo RLuc: inconclusive; StopGo FLuc: inconclusive

What do the screens show for `Oc1ccc(-c2nc(-c3ccccc3F)cs2)cc1`?
StopGo RLuc: 9%; StopGo FLuc: 208%[activator]

How did CCCCCC1CCc2nc(/C=C/c3ccccc3)ccc2C1 (stereo not given) do in these assays?
StopGo RLuc: 8%; StopGo FLuc: 7%

How did CC(=O)Cc1c(C)n[nH]c1C do in these assays?
StopGo RLuc: 1%; StopGo FLuc: 11%

What do the screens show for `CC(=O)c1c(C)n(-c2ccc(Cl)cc2)c2ccc(OCC(N)=O)cc12`?
StopGo RLuc: -18%; StopGo FLuc: -9%

How did O=C(NCc1cccc(C(F)(F)F)c1)OCC(F)(F)F do in these assays?
StopGo RLuc: 7%; StopGo FLuc: 0%

Results for CC(C)n1nc(-c2cc3cc(O)ccc3[nH]2)c2c(N)ncnc21 ?
StopGo RLuc: inconclusive; StopGo FLuc: inconclusive

Results for CC1CCN(S(=O)(=O)c2ccc3nc(NC4CCCCCC4)ccc3c2)CC1 ?
StopGo RLuc: 32%[activator]; StopGo FLuc: -31%

What do the screens show for `Cc1ccc(C(C)C)c(OCC(O)CNCc2ccccc2)c1` (stereo not given)?
StopGo RLuc: 3%; StopGo FLuc: 5%

How did O=C(NCCNc1ncccc1C(F)(F)F)Nc1ccccc1F do in these assays?
StopGo RLuc: 212%[activator]; StopGo FLuc: 58%[activator]

Results for CCCCc1ccc(NC(=O)Cn2c(=O)c3c(ncn3CCOC)n(Cc3ccccc3)c2=O)cc1 ?
StopGo RLuc: -16%; StopGo FLuc: -16%

What do the screens show for `CC(C)CNC(=O)CN1CCN(c2cccc(Cl)c2)CC1`?
StopGo RLuc: -14%; StopGo FLuc: -14%

What do the screens show for `O=C(Cn1c(=O)n(CCc2ccccc2)c(=O)c2sccc21)c1ccc(F)cc1`?
StopGo RLuc: 31%[activator]; StopGo FLuc: 161%[activator]

Results for O=C(NCCn1cc(SCc2ccccc2Cl)c2ccccc21)c1cccs1 ?
StopGo RLuc: 6%; StopGo FLuc: 36%[activator]

How did CCOc1ccc(N(CCC#N)C(=O)Cn2nc(C(=O)O)c3ccccc3c2=O)cc1 do in these assays?
StopGo RLuc: -6%; StopGo FLuc: -11%

How did Cc1cc(NC(=O)COC(=O)c2cnccn2)ccc1Br do in these assays?
StopGo RLuc: -16%; StopGo FLuc: -6%

Results for COc1cccc(CNCCSc2nnnn2C)c1OCc1ccccc1Cl ?
StopGo RLuc: -1%; StopGo FLuc: -13%

Results for CCc1ccc(NCc2cc3cc4c(cc3n(CC(=O)Nc3ccc(OC)cc3)c2=O)OCO4)cc1 ?
StopGo RLuc: -9%; StopGo FLuc: -23%

How did N#Cc1cccc(NC(=O)c2nn(Cc3ccccc3)c(=O)c3ccccc23)c1 do in these assays?
StopGo RLuc: 0%; StopGo FLuc: 32%[activator]

What do the screens show for `Cc1ccc(C)c(NC(=O)CC2(C(=O)O)CCCC2)c1`?
StopGo RLuc: 12%; StopGo FLuc: 17%

How did Cc1cc2nn(CC(=O)N3CCC(C)CC3)c(=O)n2c(N2CCc3ccccc3C2)n1 do in these assays?
StopGo RLuc: -15%; StopGo FLuc: -10%

Results for C=C(C)Cn1c(NCCCCCC)nc2c1c(=O)[nH]c(=O)n2C ?
StopGo RLuc: 8%; StopGo FLuc: 14%

What do the screens show for `Cn1ncc2c(Nc3ccccc3)nc(N3CCN(C(=O)c4ccco4)CC3)nc21`?
StopGo RLuc: 48%[activator]; StopGo FLuc: 19%

Results for O=C(c1ccccc1)N(Cc1cccc2[nH]ccc12)C1CC1 ?
StopGo RLuc: 129%[activator]; StopGo FLuc: 0%

Results for CNC(=S)NNC(=O)c1ccc(C)c(Cl)c1 ?
StopGo RLuc: 14%; StopGo FLuc: 37%[activator]

What do the screens show for `O=C(NCc1ccncc1)c1cc(-c2ccco2)nc2ccccc12`?
StopGo RLuc: 14%; StopGo FLuc: 34%[activator]

How did CCCn1c(CN2CCCCCC2)nc2cc(NC(=O)Cn3nc(C)c4ccccc4c3=O)ccc21 do in these assays?
StopGo RLuc: 0%; StopGo FLuc: -12%

How did CCCCCCn1c(NCCOC)nc2c1c(=O)[nH]c(=O)n2C do in these assays?
StopGo RLuc: 20%; StopGo FLuc: 26%

How did COc1ccc(Cl)cc1NC(=O)CCn1nc(C)cc1C do in these assays?
StopGo RLuc: -3%; StopGo FLuc: -13%

How did Cc1cc(=O)oc2c(C)c(OCC(=O)NCCCN(C)C)ccc12 do in these assays?
StopGo RLuc: -13%; StopGo FLuc: -6%

Results for CCc1ccccc1NC(=O)Nc1cc(OC)cc(OC)c1 ?
StopGo RLuc: 148%[activator]; StopGo FLuc: 15%

How did Cc1ccc(-c2onc(C)c2C)cc1S(=O)(=O)N1CCc2ccccc21 do in these assays?
StopGo RLuc: inconclusive; StopGo FLuc: inconclusive

What do the screens show for `CCc1cccc(NC(=O)CCS(=O)(=O)c2ccc3nc(C)sc3c2)c1`?
StopGo RLuc: 42%[activator]; StopGo FLuc: -20%

Results for CC(=O)c1[nH]c(C)c(C(=O)NCCc2ccc(C)cc2)c1C ?
StopGo RLuc: 2%; StopGo FLuc: 6%

Results for CCOc1cc(C2N=C(N)Nc3nc4cc5c(cc4n32)OCCCO5)cc(Cl)c1O (stereo not given) ?
StopGo RLuc: -6%; StopGo FLuc: 21%

How did Cc1nc(-c2ccc(S(=O)(=O)N3CCN(c4cc(Cl)ccc4C)CC3)cc2)co1 do in these assays?
StopGo RLuc: 13%; StopGo FLuc: 16%

What do the screens show for `CCNC(=O)C1CCN(c2nnc(C)c3c(C)n(-c4ccc(OC)cc4)nc23)CC1`?
StopGo RLuc: 9%; StopGo FLuc: -4%

Results for CCC(=O)NC1(C(F)(F)F)N=C(c2ccccc2)N(CCCc2ccccc2)C1=O (stereo not given) ?
StopGo RLuc: -10%; StopGo FLuc: -8%

How did Cc1ccc(CCNC(=O)CCn2nc(-c3ccc(Cl)cc3)ccc2=O)cc1 do in these assays?
StopGo RLuc: -4%; StopGo FLuc: 16%

How did O=S(=O)(Cc1ccc(Cl)cc1)c1nc2ccccc2nc1N1CCCCC1 do in these assays?
StopGo RLuc: 60%[activator]; StopGo FLuc: 3%

Results for Cc1ccc(Nc2nc(-c3ccc(S(=O)(=O)N4CCCC4)cc3)cs2)cc1C ?
StopGo RLuc: 10%; StopGo FLuc: 17%

How did O=C(Nc1cccc(S(=O)(=O)NC2=NCCC2)c1)C1(c2ccccc2)CCCC1 do in these assays?
StopGo RLuc: 83%[activator]; StopGo FLuc: 3%

Results for CCN(c1ccc(-c2csc(Cc3ccccc3)n2)cc1)S(C)(=O)=O ?
StopGo RLuc: inconclusive; StopGo FLuc: inconclusive

How did CCCn1nc(C(=O)Nc2ccccc2OC)c2ccccc2c1=O do in these assays?
StopGo RLuc: 7%; StopGo FLuc: 19%

3 records drawn at random from those above, as already listed:
How did Cc1ccc(CCNC(=O)CCn2nc(-c3ccc(Cl)cc3)ccc2=O)cc1 do in these assays?
StopGo RLuc: -4%; StopGo FLuc: 16%

Results for CCOc1cc(C2N=C(N)Nc3nc4cc5c(cc4n32)OCCCO5)cc(Cl)c1O (stereo not given) ?
StopGo RLuc: -6%; StopGo FLuc: 21%

How did Cc1nc(-c2ccc(S(=O)(=O)N3CCN(c4cc(Cl)ccc4C)CC3)cc2)co1 do in these assays?
StopGo RLuc: 13%; StopGo FLuc: 16%

Further results.
What do the screens show for `Cc1cc(C)c(NC(=O)CSC2=Nc3ccccc3C3=NC(CC(=O)NCc4cccs4)C(=O)N23)c(C)c1` (stereo not given)?
StopGo RLuc: -8%; StopGo FLuc: -11%

How did COc1ccc(Nc2ncnc3c2cnn3-c2ccc(C)cc2C)cc1 do in these assays?
StopGo RLuc: -13%; StopGo FLuc: 95%[activator]

What do the screens show for `CCC(C)NC(=O)CCNC(=O)NCc1ccccc1` (stereo not given)?
StopGo RLuc: -8%[1.06 µM]; StopGo FLuc: -7%

How did Cc1nc(CN2CCN(C(=O)NC(C)c3ccccn3)CC2)cs1 (stereo not given) do in these assays?
StopGo RLuc: -4%; StopGo FLuc: 6%

How did O=C1NC(NS(=O)(=O)c2ccccc2)(C(F)(F)F)C(=O)N1CCc1ccccc1 (stereo not given) do in these assays?
StopGo RLuc: 1%; StopGo FLuc: 19%

Results for CC(OC(=O)Cn1[nH]c(=O)c2ccccc2c1=O)C(=O)Nc1ccc(F)cc1Cl (stereo not given) ?
StopGo RLuc: 2%; StopGo FLuc: 0%

How did Cc1cn2c(C(=O)c3ccccc3)c(-c3ccccc3)cc2cc1-c1ccccc1 do in these assays?
StopGo RLuc: 6%; StopGo FLuc: 87%[activator]

Results for C#CC[N+](C)(CC#CC=C)Cc1ccccc1 (stereo not given) ?
StopGo RLuc: 2%; StopGo FLuc: -4%

What do the screens show for `CC(C)NC(=O)C(=O)NC1CC(C)(C)NC(C)(C)C1`?
StopGo RLuc: 7%; StopGo FLuc: 5%

Results for Cc1cc(C)c2oc(C(=O)Nc3cccnc3)cc(=O)c2c1 ?
StopGo RLuc: -2%; StopGo FLuc: -3%

Results for CC1CCN(S(=O)(=O)c2ccc3c(ccc(=O)n3CC(=O)NCc3ccccn3)c2)CC1 ?
StopGo RLuc: 17%; StopGo FLuc: -8%

How did Cc1ccc(OCC(=O)N(Cc2ccc(Cl)cc2)CC2CCCO2)cc1C (stereo not given) do in these assays?
StopGo RLuc: 46%[activator]; StopGo FLuc: -8%

What do the screens show for `CC(C)(C)NC(=O)CSc1ncc(-c2ccc(Cl)cc2)o1`?
StopGo RLuc: -13%; StopGo FLuc: 33%[activator]

What do the screens show for `COc1ccc(CCNC(=O)Cn2c(-c3ccc(F)cc3)cc(C(C)=O)c2C)cc1OC`?
StopGo RLuc: -23%; StopGo FLuc: 16%

How did CCC(C)(C(=O)NC1CCCCC1)N(Cc1ccco1)C(=O)c1ccc2c(c1)OCO2 (stereo not given) do in these assays?
StopGo RLuc: 36%[activator]; StopGo FLuc: 1%

How did Cc1ccc(Sc2ccc(F)cc2)nc1 do in these assays?
StopGo RLuc: -10%; StopGo FLuc: 1%

What do the screens show for `CS(=O)(=O)N1CCCC(C(=O)Nc2ccc(SC3CCCC3)cc2)C1` (stereo not given)?
StopGo RLuc: inconclusive; StopGo FLuc: inconclusive

What do the screens show for `CCCc1nc(N2CCN(CC(=O)N3CCCC3)CC2)c(C#N)c2c1CCC2`?
StopGo RLuc: 12%; StopGo FLuc: -2%

Source: PubChem (National Center for Advancing Translational Sciences (NCATS))
